TRPML1 blocker: blocks the human TRPML1 channel; TRPML1-inducible cells, Ca2+ dye fluorescence, FDSS; stronger effect = lower value; inhibition of EC80 agonist-evoked calcium signal; activity change, negative = inhibition, % (test concentration not listed); actives 0.02% (n = 390,000); in the data active means activity change below about -50%; inconclusive means about -30% to -50%; inactive means above about -30%;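 also: stimulus is agonist 54-4 at its EC80 concentration; % is scaled to controls: 0 for no effect and ±100 for the full control effect; compound concentration not given in the record; the text of the record puts the active cut at -80%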
Target sequence (Q9GZU1 whole entry, looked up): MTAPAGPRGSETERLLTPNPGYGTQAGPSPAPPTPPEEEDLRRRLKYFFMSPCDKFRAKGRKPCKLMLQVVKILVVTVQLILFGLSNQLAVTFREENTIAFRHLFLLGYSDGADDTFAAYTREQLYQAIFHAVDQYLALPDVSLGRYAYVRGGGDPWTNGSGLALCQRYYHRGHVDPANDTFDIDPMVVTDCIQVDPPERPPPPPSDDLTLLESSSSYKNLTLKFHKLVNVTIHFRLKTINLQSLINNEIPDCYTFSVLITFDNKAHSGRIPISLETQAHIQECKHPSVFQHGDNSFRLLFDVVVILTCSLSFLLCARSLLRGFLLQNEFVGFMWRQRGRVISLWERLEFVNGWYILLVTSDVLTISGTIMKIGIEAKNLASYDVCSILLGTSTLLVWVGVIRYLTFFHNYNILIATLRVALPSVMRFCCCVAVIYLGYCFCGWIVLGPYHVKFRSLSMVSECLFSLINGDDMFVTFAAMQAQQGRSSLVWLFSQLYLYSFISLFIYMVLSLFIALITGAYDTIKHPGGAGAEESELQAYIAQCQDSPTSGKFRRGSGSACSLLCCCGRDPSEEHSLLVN
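Calcium fluorescence in TRPML1-DL cells induced overnight with Tet: a 110 s read after compound pin addition, then a 110 s antagonist read after challenge with 54-4 at 4 uM final (EC80).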
TRPML1 agonist: activates the human TRPML1 channel; Q9GZU1; TRPML1-expressing cells, Ca2+ dye fluorescence, FDSS; host cell line not named in the record; reference of the full effect not given here; activation, % (test concentration not listed); actives 0.12% (n = 410,000); in the data active = activation above about 50%; inconclusive = about 30% to 50%; inactive = below about 30%; also: 0% is about no effect; the text of the record puts the active cut at 80%
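In this qHTS format, compounds were pin-transferred onto Ca8-dye-loaded TRPML1-DL cells induced with Tet overnight, and intracellular Ca2+ fluorescence was recorded kinetically for 110 s after a 10 s baseline. A subsequent 4uM final 54-4 (EC80) addition followed by a second 110 s read served as the antagonist phase.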
gsp antag: antagonists of gsp mutant (McCune-Albright syndrome); Potency, µM (highest dose often 76.9 µM), for the others: at the highest dose activity change, negative = inhibition, actives largely listed as inhibitors; AID 624288; gsp-mutant cells, cAMP HTRF, 30 min; control for the full effect not named in the record; actives 0.4% (n = 340,000); active = falling curve of any shape with a large fitted effect; inconclusive = falling curve, mostly with a smaller effect; inactive = flat or rising curve; cell line not stated here;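 also: intracellular cAMP measured with PDE inhibitor Ro 20-1724 present during compound exposure; potency is read from the fitted curve at half-maximal effect; % is scaled to controls: 0 for no effect and ±100 for the full control effect; nearly all actives have a fitted effect of over 65% in size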
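HTRF cAMP measurement after 30 min RT detection following 30 min, 37C compound treatment alongside […] (added as 300 uM solution) in G418-selected cells seeded at 2000/well and grown 16–24 h.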
ClpP mod: qHTS Assay for Activators of ClpP | actives 1.9% (n = 340,000) | Potency, µM (top dose mostly 57.5 µM), for the others: at the top dose activity change, negative = active | ATP-dependent Clp protease proteolytic subunit (Bacillus subtilis (strain 168)), P80244 | purified B. subtilis ClpP, FRET peptide cleavage, 20 min; active = well fitted falling curve with a large enough effect; inconclusive = small, poorly fitted or top-dose-only effect; inactive = no such curve, though single readings can be large or run the other way; also: potency is read from the fitted curve at half-maximal effect; the source files actives as falling curves though it sought activators and does not explain the sign; nearly all actives have a fitted effect of over 65% in size; many hits overshoot -100%
Target sequence (P80244 whole entry, looked up): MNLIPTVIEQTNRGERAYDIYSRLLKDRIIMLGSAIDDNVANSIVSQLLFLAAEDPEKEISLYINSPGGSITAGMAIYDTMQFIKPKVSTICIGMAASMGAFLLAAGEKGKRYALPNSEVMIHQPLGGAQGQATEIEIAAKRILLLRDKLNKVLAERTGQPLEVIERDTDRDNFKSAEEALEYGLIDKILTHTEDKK
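Buffer: 100 mM Tris/HCl pH8, 100 mM KCl, 0.05% low protease BSA, 2.5% glycerol, 0.01% Tween-20. ClpP 10 microg/mL final; 20 min RT; delta FRET normalized to ADEP and DMSO controls.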
gsp agonist: gsp mutant agonism; gsp mutant cells, cAMP HTRF, 30 min; control for the full effect not named in the record; Potency, µM (top dose mostly 76.9 µM), inactives show top-dose activation (cAMP increase), actives largely listed as activators; actives 0.13% (n = 340,000); AID 624287; active = well fitted activation curve with a large enough effect; inconclusive = small, poorly fitted or top-dose-only effect, or another doubt; inactive = no such curve, though single readings can be large or run the other way; cell line not stated here;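 also: phosphodiesterase inhibitor Ro 20-1724 added with compounds to block cAMP breakdown; potency is read from the fitted curve at half-maximal effect; nearly all actives have a fitted effect of over 60% in size; about a fifth of the inactives were tested at one dose only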
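Cells stably selected in G418 were plated at 2000/well, grown 16-24 hr, then given compounds in DMSO with the PDE inhibitor […] (300 uM solution added) for 30 min at 37C; cAMP was read by HTRF.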
Menin-MLL FL inh: menin-MLL binding inhibition, fluorescein peptide; Fluorescence polarization, fluorescein-MLL peptide displacement from menin; FP activity change, % at 61.4 µM; 290,000 tested, under 10 active; AID 1766; inconclusive = falling polarisation curve, or a change in total fluorescence; inactive = total fluorescence flat and polarisation flat or rising; no compound was filed as active; the % refers to the polarisation; negative = inhibition;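 also: % of control where 0% means no effect; inhibitors lower the polarisation; unlabelled MLL peptide was the positive control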
Active calls of the source: *; & = joins results of further samples; [ ] = dose if it differs, or a comment.

C[n+]1ccc(C(=O)NCCC[N+](C)(C)C)cc1/C=N/O was read as TRPML1 blocker -7, TRPML1 agonist 0.3, gsp agonist 6%[15.4 µM] and Menin-MLL FL inh -0.1.
`CCOC(=O)C1CCN(C(=O)c2cc3sc(C)cc3n2C)CC1` gave TRPML1 blocker 2, TRPML1 agonist 0.4 and ClpP mod -1.2%.
For O=C(CN1C(=O)COc2ccccc21)c1cccc(Cl)c1 the results were TRPML1 blocker 9, TRPML1 agonist 0.8, gsp antag 2%, ClpP mod 0.9%, gsp agonist 1% and Menin-MLL FL inh 0.8.
COc1ccc(CCNC(=O)CCS(=O)(=O)c2ccc3c(c2)oc(=O)n3C)cc1OC was read as TRPML1 blocker -2&-21, TRPML1 agonist -0.6&0.2, gsp antag 7%, ClpP mod 0.2%&-2.0% and gsp agonist -28%.
CCOc1cc(/C=N/NC(=O)Cn2nc([N+](=O)[O-])cc2C)ccc1OCc1ccc(F)cc1 was read as TRPML1 blocker -11, TRPML1 agonist 0.3, gsp antag 13%, ClpP mod 3.8%, gsp agonist -16% and Menin-MLL FL inh 5.5.
For Cc1nnc(NC(=O)CN2CCN(Cc3ccccc3)CC2)s1 the results were gsp antag 6%, ClpP mod 2.1%, gsp agonist 8% and Menin-MLL FL inh -2.6.
CSCCC(NC(=O)c1ccccc1Cl)C(=O)NCCOc1ccc(C)cc1 (centres undefined) was read as TRPML1 blocker -2, TRPML1 agonist -0.1, ClpP mod -0.6% and gsp agonist 23%.
CCOC(=O)NC(Nc1ncccn1)(C(F)(F)F)C(F)(F)F was read as TRPML1 blocker 5, TRPML1 agonist -0.2, gsp antag 4%, ClpP mod -0.6%, gsp agonist 4% and Menin-MLL FL inh 1.7.
CCCn1c(SCC(=O)NCCc2ccccc2)nnc1-c1ccco1 was read as TRPML1 blocker -2, TRPML1 agonist 1.8, gsp antag 5%, ClpP mod -2.6%, gsp agonist -18% and Menin-MLL FL inh -1.3.
`O=c1[nH]c(C2CCN(S(=O)(=O)c3ccccc3)CC2)nc2c1nnn2Cc1cccc(Cl)c1` gave TRPML1 blocker -11, TRPML1 agonist 0.2, gsp antag -3%, gsp agonist -5%[15.4 µM] and Menin-MLL FL inh -4.0.
`Cc1ccc2cc(C3C(C#N)=C(N)Oc4c3ccc3cccnc43)c(=O)[nH]c2c1` (centres undefined) gave TRPML1 blocker -5, TRPML1 agonist -0.3, gsp antag 9%, ClpP mod -7.5%, gsp agonist inconclusive and Menin-MLL FL inh inconclusive.
Cc1cc(C)c(S(=O)(=O)c2ccc(F)cc2C)c(=O)[nH]1 was read as TRPML1 blocker 7, TRPML1 agonist 0.3, gsp antag 10%, ClpP mod -14%, gsp agonist -10% and Menin-MLL FL inh -7.9.
`O=C(CSc1ncnc2nc[nH]c12)N1CCOCC1` gave TRPML1 blocker 39, TRPML1 agonist 1.4, gsp antag 0%, ClpP mod 0.8%, gsp agonist 12% and Menin-MLL FL inh 1.0.
`CCCCn1c(N)c(N(CCOC)C(=O)COc2ccc(Cl)cc2)c(=O)[nH]c1=O` gave TRPML1 blocker -5, TRPML1 agonist -0.5, gsp antag 1%, ClpP mod 1.2%, gsp agonist 1% and Menin-MLL FL inh -2.0.
`CCOC(=O)c1cccc(NC(=O)C2CCCN(S(=O)(=O)c3ccc4c(c3)oc(=O)n4C)C2)c1` (centres undefined) gave TRPML1 blocker 20, TRPML1 agonist -0.7 and ClpP mod -0.2%.
COc1ccc([C@@H]2C[C@@H](c3ccccc3)Oc3cc(C)cc(C)c32)cc1 was read as TRPML1 blocker -1, TRPML1 agonist -0.4, gsp antag 4%, ClpP mod -0.3% and Menin-MLL FL inh 2.6.
`CCc1ccccc1NC(=O)CSc1ncccc1C(=O)O` gave TRPML1 blocker 13, TRPML1 agonist 0.0 and ClpP mod -4.2%.
CC(C)(C)OC(=O)N1CCC(CC2CC(c3ccccc3)=NO2)(C(=O)O)CC1 (centres undefined) was read as TRPML1 blocker -6, TRPML1 agonist -0.6, gsp antag -7% and ClpP mod -4.1%.
CCOC(=O)CNC(=O)c1ccc(SCC)cc1 was read as TRPML1 blocker 24, TRPML1 agonist 0.2, gsp antag 0%, ClpP mod -4.9%, gsp agonist -1%[15.4 µM] and Menin-MLL FL inh 2.9.
O=C(NCc1cccs1)c1ccccc1[N+](=O)[O-] was read as TRPML1 blocker 22, TRPML1 agonist -1.0, gsp antag 4%, ClpP mod -1.0%, gsp agonist 6% and Menin-MLL FL inh 1.4.

The closing 2 compounds of the section above come first, to join the parts.
CCOC(=O)CNC(=O)c1ccc(SCC)cc1 was read as TRPML1 blocker 24, TRPML1 agonist 0.2, gsp antag 0%, ClpP mod -4.9%, gsp agonist -1%[15.4 µM] and Menin-MLL FL inh 2.9.
O=C(NCc1cccs1)c1ccccc1[N+](=O)[O-] was read as TRPML1 blocker 22, TRPML1 agonist -1.0, gsp antag 4%, ClpP mod -1.0%, gsp agonist 6% and Menin-MLL FL inh 1.4.
For CCn1c(=S)sc2c(=O)[nH]c(SCC(=O)Nc3cc(OC)ccc3OC)nc21 the results were TRPML1 blocker 30, TRPML1 agonist -1.2, gsp antag -29%, ClpP mod -0.7% and gsp agonist 4%.
CN1/C(=C\C(=O)Nc2ccc(F)cc2)C(C)(C)c2ccccc21 was read as TRPML1 blocker -18, TRPML1 agonist 0.5, gsp antag -11%, ClpP mod -1.5%, gsp agonist 12% and Menin-MLL FL inh 4.8.
Screening Cc1cccc(-c2nc(=S)c3c(n2Cc2ccco2)CCCC3)c1 returned TRPML1 blocker 0, TRPML1 agonist 0.3, gsp antag 5%, ClpP mod -1.0%, gsp agonist inconclusive and Menin-MLL FL inh 5.1.
For O=C(CNC(=O)c1ccccc1)NC1(C(=O)NC2CCCC2)CCCCC1 the results were TRPML1 blocker 6, TRPML1 agonist -0.6, gsp antag -4%, ClpP mod 1.5%, gsp agonist -34% and Menin-MLL FL inh -1.8.
`CC1(C)CC2C1CCC1(O)CC2(C)CCC1N(O)c1ccc(C(=O)NCCO)cn1` (centres undefined) gave TRPML1 blocker -15, TRPML1 agonist 0.4, gsp antag 9% and ClpP mod 0.8%.
Screening COCC(=O)N(C)C[C@H]1N[C@@](C)(C(=O)OC)[C@H]2C(=O)N(Cc3ccccc3)C(=O)[C@@H]12 returned TRPML1 blocker -12, TRPML1 agonist 1.1, gsp antag 11% and ClpP mod 1.4%.
`Cc1cc(=O)n(CC(=O)N2CCCCC2)c2c1c(C)nn2C` gave TRPML1 blocker 0, TRPML1 agonist -0.6 and ClpP mod 3.7%.
Screening COc1ccc(CCNC(=O)CSCC(=O)Nc2cc(S(C)(=O)=O)ccc2Cl)cc1 returned TRPML1 blocker -2, TRPML1 agonist 0.2, gsp antag 1%, ClpP mod -1.6% and gsp agonist -3%.
For O=C(NNC(=S)Nc1ccccc1)c1ccc2ncccc2c1 the results were TRPML1 blocker -8, TRPML1 agonist -1.0, gsp antag -55%, gsp agonist -7%[15.4 µM] and Menin-MLL FL inh 8.0.
`Cc1ccc(-c2cc(C(=O)Nc3nccs3)c3ccccc3n2)o1` gave TRPML1 blocker -7, TRPML1 agonist -0.6, gsp antag -9%, ClpP mod -10%, gsp agonist inconclusive and Menin-MLL FL inh 5.2.
`COc1cc(C(CCN2CCOCC2)c2c(OC)cc(OC)c3c(-c4ccccc4)cc(=O)oc23)cc(OC)c1OC` (centres undefined) gave TRPML1 blocker 20, TRPML1 agonist 3.5, gsp antag 11%, ClpP mod -2.4% and Menin-MLL FL inh -0.9[44.5 µM].
`O=C(COc1ccc(Br)cc1)NNC(=O)Cc1ccc(S(=O)(=O)N2CCOCC2)s1` gave TRPML1 blocker 47, TRPML1 agonist 0.6, gsp antag -6%, ClpP mod -3.2% and gsp agonist inconclusive.
O=C(NCc1ccco1)C1CCCN(S(=O)(=O)c2cc(Cl)ccc2Cl)C1 (centres undefined) was read as TRPML1 blocker 1, TRPML1 agonist 0.0, gsp antag -2%, ClpP mod -0.1%, gsp agonist -36%[inhibitor] and Menin-MLL FL inh -2.4.
For O=C(Nc1ccc(C(=O)N2CCCC2)cc1)Nc1ccc(Cl)cc1Cl the results were TRPML1 blocker 19, TRPML1 agonist -0.2, gsp antag 2%, ClpP mod 0.3%, gsp agonist 1%[15.4 µM] and Menin-MLL FL inh 1.4.
CC(C)(C)OC(=O)N1CCC[C@H]1c1nnc(SCC(=O)Nc2cccc(Cl)c2)o1 was read as TRPML1 blocker -10, TRPML1 agonist 0.1, gsp antag -4%, gsp agonist inconclusive and Menin-MLL FL inh 4.0.
Screening O=C(NC(NC(=S)Nc1c(Cl)cccc1Cl)C(Cl)(Cl)Cl)OCc1ccccc1 (centres undefined) returned TRPML1 blocker 29, TRPML1 agonist 3.4, gsp antag -29%, ClpP mod -2.1%, gsp agonist 8% and Menin-MLL FL inh 2.0.
`CCOC(=O)c1ccc(-c2ccc(/C=N/NC(=O)CN(c3cccc(C)c3)S(C)(=O)=O)o2)cc1` gave TRPML1 blocker -18, TRPML1 agonist -0.1, gsp antag -10%, ClpP mod -17%, gsp agonist 28% and Menin-MLL FL inh 6.8.
Screening CCOC(=O)c1ccccc1NC(=O)c1ccc(NS(C)(=O)=O)cc1 returned TRPML1 blocker -6, TRPML1 agonist -0.2, gsp antag 6%, ClpP mod -2.3%, gsp agonist 18% and Menin-MLL FL inh 5.0.
O=C(c1ccccc1)N1CCCC(C(=O)N2CCc3ccccc3C2)C1 (centres undefined) was read as TRPML1 blocker 13, TRPML1 agonist -1.2, gsp antag -11%, ClpP mod -1.4%, gsp agonist -2% and Menin-MLL FL inh 3.5.
`Cc1cccc(OCC(=O)NCC(=O)n2nc(C)cc2C)c1` gave TRPML1 blocker 0, TRPML1 agonist -1.5, gsp antag 9%, ClpP mod -1.7%, gsp agonist 10% and Menin-MLL FL inh -1.2.
For COc1ccc2nc(C)cc(SCC(=O)N/N=C/c3c(OC)ccc4ccccc34)c2c1 the results were TRPML1 blocker 34, TRPML1 agonist -0.4, gsp antag 6%, ClpP mod -0.3%, gsp agonist 10% and Menin-MLL FL inh 2.2.
Screening COc1ccccc1C1CCN(Cc2cccc([N+](=O)[O-])c2)CC1 returned TRPML1 blocker 0, TRPML1 agonist -1.3, gsp antag -8%, ClpP mod 0.4%, gsp agonist 14% and Menin-MLL FL inh 1.4.
COc1cccc(NC(=S)NC2CC(C)CC(C)(C)C2)c1 (centres undefined) was read as TRPML1 blocker 3, TRPML1 agonist 0.7, ClpP mod 1.2% and gsp agonist -25%.
For CNC(=O)NC(=O)C(OC(=O)Cc1cccc(C(F)(F)F)c1)c1ccccc1 (centres undefined) the results were TRPML1 blocker 22, TRPML1 agonist 3.7, gsp antag 1%, gsp agonist -39%[inhibitor] and Menin-MLL FL inh inconclusive.

Compound activity: PubChem, National Center for Advancing Translational Sciences (NCATS)
